HNF4A DNA FP – change in binding of human HNF4 alpha to DNA; HNF4a-FITC DNA binding, fluorescence polarization, 1 h; activity change, % at 10 µM; 0.3% of 360,000 active; in the data active = activity change above about 30%, passing the limit was not always enough;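 note: controls were the assay level and a saturating level of protein; the project sought stronger binding though the title names inhibitors; some compounds called inactive have numbers as strong as hits; positive values seem to mean higher polarization but the record does not say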
Target sequence (P41235 whole entry, looked up): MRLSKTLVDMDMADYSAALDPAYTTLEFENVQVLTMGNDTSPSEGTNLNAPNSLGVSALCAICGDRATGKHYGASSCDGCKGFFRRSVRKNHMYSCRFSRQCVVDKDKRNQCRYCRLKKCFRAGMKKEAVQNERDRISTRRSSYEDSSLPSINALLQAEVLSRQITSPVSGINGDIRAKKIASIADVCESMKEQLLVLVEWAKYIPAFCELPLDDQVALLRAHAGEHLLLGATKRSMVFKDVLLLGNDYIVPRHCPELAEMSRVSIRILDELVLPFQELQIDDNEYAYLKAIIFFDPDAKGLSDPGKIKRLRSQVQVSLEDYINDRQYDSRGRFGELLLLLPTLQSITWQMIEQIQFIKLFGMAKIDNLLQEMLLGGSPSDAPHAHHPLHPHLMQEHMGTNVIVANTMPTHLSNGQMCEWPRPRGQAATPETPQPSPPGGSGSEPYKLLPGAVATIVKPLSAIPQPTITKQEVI
FGF22 binding – shifts melting point of recombinant human FGF22; calls only at 9.99 µM; 1.5% of 340,000 active; Q9HCT0; recombinant FGF22 thermal shift, SYPRO orange fluorescence; percent of sucrose octasulfate shift, DMSO zero;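 active = melting point raised past a set limit in the mean and every replicate; three in four hits are not shown here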
Target sequence (Q9HCT0 whole entry, looked up): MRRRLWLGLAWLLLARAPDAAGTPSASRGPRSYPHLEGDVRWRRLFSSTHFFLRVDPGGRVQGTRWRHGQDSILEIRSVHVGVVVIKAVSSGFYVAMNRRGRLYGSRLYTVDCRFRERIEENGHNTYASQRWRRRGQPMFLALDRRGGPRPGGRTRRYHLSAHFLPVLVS
ALR inh – blocks human ALR sulfhydryl oxidase activity; P55789; purified ALR, DTT oxidation, H2O2 HRP-luminol luminescence; inhibition, % (test concentration not listed); 3.8% of 290,000 active; AID 485317;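 active = mean and each replicate at 75% or more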;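 note: stock transfer was 7.5 nL into about 7.5 µL; 0% = neutral wells and 100% = wells with inactivated enzyme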
Ecoli rRNA inh – inhibitors of bacterial rRNA selective over humanized ribosomes. E. coli WT GFP vs humanized-ribosome RFP mutants, fluorescence, 24 h; active compounds read low; DMSO median 0, no signal -100. GFP signal change (wild-type ribosome), % (test concentration not listed). 1.6% of 350,000 active;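 active = significant combined selectivity score with lowered wild-type GFP, culture density cut under 30%, mutant RFP and density less affected; inactive = any of these conditions unmet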; note: one replicate is shown; some compounds called inactive have numbers as strong as hits
E coli growth – E. coli growth inhibition. 0.21% of 330,000 active. Escherichia coli growth, OD600, 23 h; active compounds read low. OD600 absorbance (no concentration beside the values). AID 1053175;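 active = OD600 absorbance below the run mean of sample wells minus 3.6 SD, in any replicate, cut at about 0.56 in these data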;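 note: stock transfer was 300 nL into about 60 µL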
UCH37 DUB inh – inhibitors of human deubiquitinating enzyme UCH37; Q9Y5K5; purified proteasome/UCH37, Ub-AMC cleavage fluorescence; inhibition, % (no concentration beside the values); 0.33% of 330,000 active;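 active = mean of two replicates above 20%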;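 note: 0% = compound-free wells with enzyme and 100% = wells lacking proteasome; stock transfer was 100 nL into about 20 µL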
Target sequence (Q9Y5K5 whole entry, looked up): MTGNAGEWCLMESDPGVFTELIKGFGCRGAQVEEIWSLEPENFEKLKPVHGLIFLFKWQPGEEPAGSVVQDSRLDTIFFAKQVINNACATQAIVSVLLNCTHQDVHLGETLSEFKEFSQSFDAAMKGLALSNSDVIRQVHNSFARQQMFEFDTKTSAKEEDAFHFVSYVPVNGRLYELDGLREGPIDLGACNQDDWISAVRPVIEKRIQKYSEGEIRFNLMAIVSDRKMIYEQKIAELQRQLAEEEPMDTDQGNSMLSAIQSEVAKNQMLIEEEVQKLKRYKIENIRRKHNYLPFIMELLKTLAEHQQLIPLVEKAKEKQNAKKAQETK
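Material: Human UCH37 enzyme supplied as purified proteasome complex | Schedule: 30 min compound-proteasome preincubation then 25 min substrate reaction, room temperature | Detection: AMC fluorescence from Ub-AMC cleavage, excitation 355 nm, emission 460 nm | Benchmarks: Wells without proteasome as full block, compound-free enzyme plus substrate as uninhibited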
B2AR ag – human beta-2 adrenergic receptor agonism by FAP | P07550 | Am2.2-beta2AR cells, FAP receptor internalization, flow cytometry; reference of the scale not given here | response, % (test concentration not listed) | 0.43% of 340,000 active;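 active = response above a set limit, near 3 SD of response in nonfluorescent compounds, cut at about 42% in these data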;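 note: stock transfer was 100 nL into about 11 µL; a reference agonist was the positive control; negative values mostly stem from fluorescent compounds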
Ecoli rRNA inh OD600 – second read-out of Ecoli rRNA inh, no call of its own (marks repeat the call); OD600 change, %; measured here: OD600 growth;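 optical density of the mix in the first replicate; 0 = DMSO median and -100 = no signal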
Ecoli rRNA inh RFP – also measured in Ecoli rRNA inh; calls as there; RFP signal change, %; measured here: RFP humanized mutant strains;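 first replicate; 0 = DMSO median and -100 = no signal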
* = called active by the depositor; i = inactive; / = not tested or not shown.

SMILES	HNF4A DNA FP	FGF22 binding	ALR inh	Ecoli rRNA inh	Ecoli rRNA inh OD600	Ecoli rRNA inh RFP	E coli growth	UCH37 DUB inh	B2AR ag
COC(=O)c1ccc(COC(=O)c2ccc(S(=O)(=O)N3CCC(C)CC3)cc2)o1	-1.6	/	-0.4	/	/	/	0.748	1.4	-2.2
O=C(NNC(=O)c1sc2cccc(Cl)c2c1Cl)Nc1ccccc1	1.8	/	/	/	/	/	0.799	2.6	7.8
Cc1cc(C)cc(OCC(=O)N2CCc3ccccc3C2)c1	1.8	i	-27.3	-17.2	-28.1	-4.9	0.644	0.8	-3.3
CC(=O)c1c(C)[nH]c(C(=O)OCC(=O)c2ccc(C)s2)c1C	-0.1	i	-1.5	-7.1	-23.9	3.2	0.657	2.1	-4.8
COc1ccc(C2OC(=O)CC2C(=O)NCc2ccc(C)cc2)cc1OC (stereo not drawn)	0.7	i	1.3	7.0	8.4	3.6	0.689	-0.5	-0.2
COc1cccc(-c2nnc3sc(-c4cccs4)nn23)c1	1.4	/	-3.1	/	/	/	0.748	-6.2	-2.2
CCN(c1ccccc1)S(=O)(=O)c1ccc(Cl)c(NC(=O)CN2CCN(C)CC2)c1	-2.4	i	-3.1	-5.2	4.6	0.1	0.725	2.8	1.0
COCCCNC(=O)c1cc(Sc2ccc(F)cc2)nc2ccccc12	2.6	/	0.9	/	/	/	0.639	6.5	2.0
Cc1cc(C(=O)O[C@H]2[C@H](C)NS(=O)(=O)[C@H]3C[C@@H]4C=C[C@]23O4)cc([N+](=O)[O-])c1	-3.1	i	-4.9	2.3	3.8	-3.8	/	0.7	4.5
CCc1ccc(OCC(=O)NNC(=S)NC(=O)C2CCCCC2)c(Br)c1	-2.5	i	2.6	-5.8	-23.0	-1.4	0.722	2.0	-3.8
C/C(=N\NC(N)=O)C1(C)CCCCC1	-5.5	/	-7.1	/	/	/	/	/	4.2
CN(C(=O)c1cccc(NC(=O)Cc2ccc(NC(=O)C3CCN(C(=O)C4CC4)CC3)cc2)c1)C1CCC1	1.5	i	/	5.1	12.6	1.5	0.684	4.1	-4.6
O=C(NCCN1CCN(c2ccccc2F)CC1)c1ccc2nc3ccccc3c(=O)n2c1	-5.4	i	/	1.6	4.3	1.1	0.65	-483.1	2.2
C/C(=N\NC(=O)c1cccc2ccccc12)c1cccs1	0.0	i	-0.7	14.7	14.8	-0.2	/	/	-6.5
Cc1cc(C(=O)N/N=C/c2ccc(O)c([N+](=O)[O-])c2)n[nH]1	-2.2	i	/	-1.1	-7.8	-0.8	/	/	3.7
CC(NC(=O)NC(=O)c1ccc(Cl)cc1Cl)C1CC1 (stereo not drawn)	1.3	i	-20.5	-2.9	-2.8	-6.3	0.701	-0.8	0.7
Cc1ccc(C)c(NC(=O)Cn2ccn(-c3ccc4c(c3)OCO4)c(=O)c2=O)c1	3.3	i	-13.0	7.1	8.0	-0.7	0.648	-0.3	-2.7
Cc1nn(Cc2cccc(F)c2)c(C)c1NC(=O)c1c([N+](=O)[O-])c(C)nn1C	-1.9	/	4.6	/	/	/	0.619	0.2	4.3
CCCCCCNS(=O)(=O)c1ccc(OC)c(OC)c1	-1.9	/	0.5	/	/	/	0.704	-1.0	-4.7
COCCN(C(=O)COC(=O)C1CC1)c1c(N)n(Cc2ccccc2)c(=O)[nH]c1=O	-2.5	/	-11.3	2.3	8.7	-2.0	0.717	1.4	-1.8
N#CC1=C(N)Oc2cc(Nc3ccccc3)ccc2C1c1ccncc1 (stereo not drawn)	-2.1	/	25.1	/	/	/	0.722	-0.6	16.9
Cc1ccc(S(=O)(=O)NC(=O)C2(C)CCN2C(=O)C2CCCCC2)cc1 (stereo not drawn)	-1.8	i	/	13.4	14.2	0.0	/	/	/
CCOc1ccccc1CN1CCNC(=O)C1CC(=O)N(C)C1CCOCC1 (stereo not drawn)	7.1	i	-25.7	8.9	7.7	3.0	0.705	-1.2	8.4
COc1ccccc1/C=N/NC(=O)c1nnn(-c2nonc2N)c1-c1cccs1	0.9	/	-12.5	/	/	/	/	/	2.8
COC(=O)[C@@]1(Cc2ccccc2)[C@H]2C(=O)N(Cc3ccccc3)C(=O)[C@H]2[C@H]2CN=C(SCC(=O)c3ccccc3)N21	-3.4	i	/	-3.8	-4.3	7.8	0.753	-1.9	1.6
COc1ccc(C(=O)NC2CC2)cc1OC1CCN(Cc2cc(C)cc(C)c2)CC1	3.6	i	-8.4	6.0	7.8	0.7	0.712	3.3	-0.4
NC(=O)CSc1nc2cccnc2n1-c1ccc(F)cc1	3.3	i	-22.6	1.2	4.9	-2.2	0.641	1.5	-1.9
Cc1ccsc1/C=C1\SC(N)=NC1=O	13.3	/	-9.4	/	/	/	/	/	6.7
O=C(Cc1c(F)cccc1Cl)NNC(=O)Nc1ccc2c(c1)OCO2	3.3	i	-8.4	10.8	6.0	1.1	0.71	-2.5	-2.1
COc1ccc(-n2cc(-c3ccccc3)[n+]3c2CCCCC3)cc1	-1.9	i	-6.1	-30.1*	-19.2*	6.2*	0.654	1.5	3.3
O=C(Nc1nnc(C2CC2)s1)c1cc([N+](=O)[O-])ccc1N1CCCCC1	-1.9	/	-5.3	/	/	/	0.711	7.0	-17.6
COC(=O)c1cccc(C23CC4(C2)[C@H](CN(Cc2cccnc2)[C@@H]4c2ccccc2)C3c2ccc(Cl)nc2)c1 (stereo partly drawn)	-0.5	i	7.8	4.1	-0.8	1.5	/	1.1	1.9
CCNc1nc(NC(C)C)nc(NS(=O)(=O)c2ccc(Cl)cc2)n1	1.8	/	0.3	/	/	/	0.669	3.1	-4.1
N#CCc1c(C#N)c(N)nc(N2CCN(S(=O)(=O)c3ccccc3F)CC2)c1C#N	1.3	i	2.4	7.4	6.0	-0.6	0.652	-8.2	-3.0
Cc1nn(-c2ccccc2)c2nc(N)c(C#N)c(-c3ccc(O)c(O)c3)c12	8.2	i	4.9	-57.2	-77.8	-15.8	0.688	-28.7	15.1
Cc1cccc(N2CCN(C(=O)CN(C)S(=O)(=O)c3ccc4c(c3)CCC(=O)N4)CC2)c1C	-1.9	i	-38.2	-16.4	-42.1	1.3	0.682	4.1	5.9
CCCCNC(=O)C1(C)CCN1C(=O)c1ccc(F)c(C)c1 (stereo not drawn)	-0.4	i	/	2.0	9.3	-0.6	/	/	/
COc1ccc(-n2c(Cc3cccn3C)nnc2SCC(=O)Nc2cccc(C)c2C)cc1	5.6	i	89.0*	-4.8	-5.9	1.6	0.758	1.8	-4.1
CC(=O)Nc1ccc(S(=O)(=O)Nc2nc3ccccc3nc2-n2ccc(=NC(=O)c3ccccc3)cc2)cc1	-1.9	i	-6.1	20.6	6.3	6.1	0.708	2.9	2.7
CN(C)S(=O)(=O)c1cccc(C(=O)N2CCN(Cc3ccccc3)CC2)c1	-31.7	/	/	/	/	/	0.7	0.9	1.0
Nc1ccc(S(=O)(=O)NC2(C(F)(F)F)NC(=O)N(c3ccccc3Cl)C2=O)cc1 (stereo not drawn)	2.0	/	12.0	/	/	/	0.683	1.4	0.6
COC(=O)Cn1nc(-c2ccccc2)c2cc(Cl)ccc21	1.1	/	-5.8	/	/	/	0.692	0.0	0.9
COc1ccc(N2CCN(CCCNC(=O)C(=O)c3c(C)[nH]c4ccccc34)CC2)cc1	0.1	i	31.9	-0.8	7.2	0.1	0.66	4.9	-3.6
CCOC(=O)c1ccc(Nc2c(CC)c(C)nc3ncnn23)cc1	3.7	/	-3.6	/	/	/	0.643	5.1	-9.9
O=C(CSc1nc2nn(-c3ccccc3)c(=O)c-2c2n1CCCCC2)c1ccc(OC(F)F)cc1	4.9	i	-2.9	2.4	-11.5	-2.0	0.745	3.4	6.7
Cc1cc(NC(=O)CCCN2C(=O)/C(=C\c3cccs3)SC2=S)no1	0.8	/	/	/	/	/	0.69	8.0	1.1
O=C(CNC(=O)c1ccco1)NCC(=O)OCc1ccc(C(=O)Oc2ccc(Cl)cc2)cc1	4.3	/	-8.8	/	/	/	0.731	5.1	5.4
COC(=O)c1sccc1NC(=O)c1sccc1C	-2.8	/	10.5	/	/	/	0.664	-4.8	3.6
O=S(=O)(CS(=O)(=O)c1ccccc1)c1ccccc1	3.2	i	/	-1.7	4.9	0.9	0.672	-0.7	-4.4
CCC(C(=O)NCCN1CCN(C)CC1)n1c(C)c2cnn(-c3ccccc3)c(=O)c2c1C (stereo not drawn)	-0.6	/	-7.4	/	/	/	0.71	3.8	5.8
O=C(Nc1ccnc(-c2ccncc2)n1)C1CC1	-0.4	i	/	9.0	2.8	-1.5	0.707	-1.1	-11.0
Cc1cc(C)c2c(N)c(C(=O)N/N=C/c3cccs3)sc2n1	37.6	i	-0.1	-1.2	2.3	-0.7	/	/	-28.9
O=C1CSC(c2cccc([N+](=O)[O-])c2)N1C1CC2CCC1C2 (stereo not drawn)	-2.0	i	-5.9	-5.4	4.0	-0.9	0.705	5.8	15.7
Nc1ncnc2c1ncn2[C@@H]1O[C@H](CNCc2ccccc2OC2OC(CO)C(O)C(O)C2O)[C@@H](O)[C@H]1O (stereo partly drawn)	0.3	i	/	9.9	1.7	1.1	0.684	1.7	1.6
COc1ccccc1N1CCN(CC(=O)c2c(N)n(C)c(=O)n(C)c2=O)CC1	-0.9	i	5.7	16.1	9.0	-9.6	0.7	-1.0	4.8
COC(=O)C1(C(=O)OC)C[C@H](/C=C/c2ccccc2)N(Cc2ccccc2OC)[C@@H]1c1cccc(Br)c1	26.4	i	/	-3.8	-17.1	14.8	/	/	/
COc1cccc(NC(=S)NC2CC(C)(C)NC(C)(C)C2)c1	-3.6	i	/	/	/	/	0.699	2.5	9.5
Cn1c(=O)[nH]c(=O)c2c1nc(SCC(=O)O)n2CCCc1ccccc1	-5.0	i	-3.5	8.5	8.1	2.3	0.667	3.3	6.1
O=C(NNC(=O)c1ccccc1Cl)c1ccc2c(c1)OCCO2	5.2	i	-11.5	2.1	12.0	-3.0	0.732	4.4	-5.6
COc1ccccc1C1N(c2ccc(Cl)cc2)C(=O)C2CCCN21 (stereo not drawn)	7.3	/	1.4	/	/	/	0.745	-2.0	3.9
The list goes on:
SMILES	HNF4A DNA FP	FGF22 binding	ALR inh	Ecoli rRNA inh	Ecoli rRNA inh OD600	Ecoli rRNA inh RFP	E coli growth	UCH37 DUB inh	B2AR ag
COc1ccc([C@@H]2[C@H]3CN(C(C)=O)CC=C3C(C#N)=C(N)C2(C#N)C#N)c2ccccc12	3.3	/	/	/	/	/	0.8	5.3	4.3
O=C(O)c1ccc(NC(=S)NC(=O)c2cncc(Br)c2)cc1	-4.1	i	33.1	-9.8	-0.5	-1.5	0.671	-0.4	-5.3
CSc1ccc(NC(=O)NCc2cccnc2)cc1	0.1	i	8.4	-2.5	6.7	-3.0	0.636	2.5	-2.8
CN(C)S(=O)(=O)CC12CCC(CC1=O)C2(C)C (stereo not drawn)	1.2	/	-24.3	/	/	/	0.702	3.4	2.0

Only part of the results is shown; count on the stated rates, not on these rows.
